Rango complex inh = qHTS Assay for Inhibitors of Rango (Ran-regulated importin-beta cargo) - Importin beta complex formation. Importin subunit beta-1 (Homo sapiens), Q14974. Rango CFP/YFP FRET sensor + importin beta, 45 min. Potency, µM (titrated, usually from 92.2 µM), without a hit: at the top dose inhibition of complex formation. hit rate 0.031% among 340,000; active = rising FRET ratio curve, often small or poorly fitted; inconclusive = mostly compound fluorescence or quenching in the first reads; inactive = flat curves in all reads;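 note: potency is the fitted concentration of half-maximal effect; 0% = DMSO wells and 100% = buffer wells lacking importin beta; nearly all actives have a fitted effect of over 15% in size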
Target sequence (Q14974 whole entry, looked up): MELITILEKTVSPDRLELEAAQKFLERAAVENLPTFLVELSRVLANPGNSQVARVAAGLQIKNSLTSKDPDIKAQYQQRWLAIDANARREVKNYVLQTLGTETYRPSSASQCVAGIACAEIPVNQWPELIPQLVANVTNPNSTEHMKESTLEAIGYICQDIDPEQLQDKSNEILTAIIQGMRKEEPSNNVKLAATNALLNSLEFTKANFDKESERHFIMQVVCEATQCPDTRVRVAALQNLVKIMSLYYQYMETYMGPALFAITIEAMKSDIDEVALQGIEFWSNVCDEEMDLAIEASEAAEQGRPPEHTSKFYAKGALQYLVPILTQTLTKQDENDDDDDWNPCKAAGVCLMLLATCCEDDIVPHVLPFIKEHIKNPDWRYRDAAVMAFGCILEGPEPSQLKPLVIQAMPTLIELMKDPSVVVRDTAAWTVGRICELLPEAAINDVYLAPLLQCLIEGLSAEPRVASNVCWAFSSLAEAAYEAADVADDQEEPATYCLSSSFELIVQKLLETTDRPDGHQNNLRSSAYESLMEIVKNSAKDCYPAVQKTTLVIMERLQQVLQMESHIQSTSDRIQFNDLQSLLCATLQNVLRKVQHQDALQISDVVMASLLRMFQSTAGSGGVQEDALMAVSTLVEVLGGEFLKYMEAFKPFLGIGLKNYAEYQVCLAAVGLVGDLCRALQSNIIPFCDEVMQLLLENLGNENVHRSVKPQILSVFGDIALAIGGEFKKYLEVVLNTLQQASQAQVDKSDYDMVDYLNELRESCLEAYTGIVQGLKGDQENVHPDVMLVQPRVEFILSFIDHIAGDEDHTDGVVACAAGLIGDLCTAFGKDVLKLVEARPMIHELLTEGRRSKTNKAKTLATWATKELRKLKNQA
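FRET biosensor Rango (snurportin 1 IBB between N-terminal EYFP and C-terminal Cerulean), 50 nM in PBS/1 mM DTT/0.02% Tween-20/0.1% BSA, preincubated 5 min RT with compound; 0.125 microM importin beta added, 45 min RT, CFP/YFP FRET ratio read.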
miR-21 FLuc = qHTS Assay for Modulators of miRNAs and/orActivators of miR-21. HeLa miR-21 FLuc reporter, luciferase, 48 h. Potency, µM (highest dose often 38.3 µM), without a hit: at the top dose reporter change, positive = more light. 340,000 tested, under 10 active. AID 2288, 2010; active = well fitted rising curve with a large enough effect; inconclusive = small, poorly fitted or top-dose-only effect; inactive = no such curve, though single readings can be large or run the other way;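 note: % of control where 0% means no effect; miR-21 action dims this reporter so a rising signal means less miR-21 action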
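HeLa cells endogenously expressing miR-21, stably carrying CMV-driven firefly luciferase with a downstream miR-21 binding site, 2000 cells/well. Titrations up to approximately 40 uM, 48 hours; luciferase luminescence read.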
Rango release inh = qHTS Assay for Inhibitors of RanGTP induced Rango (Ran-regulated importin-beta cargo) - Importin beta complex dissociation. Biochemical FRET Rango-importin beta, RanGTP-induced dissociation. Snurportin-1 (Homo sapiens) + GTP-binding nuclear protein Ran (Homo sapiens) + Importin …. AID 540253, 2011. Potency, µM (doses to about 46.1 µM), for inactives: at the highest dose activity change, negative = inhibition. hit rate 0.071% among 340,000; active means falling FRET ratio curve, often poorly fitted, with flat reads before Ran was added; inconclusive means other falling curves, or compound fluorescence or quenching; inactive means flat or rising ratio curve;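 note: potency is the fitted concentration of half-maximal effect; % of control where 0% means no effect; nearly all actives have a fitted effect of over 45% in size; -100% = wells without RanGTP and RCC1; the record marks most hits as doubtful in a second field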
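Rango (0.1 uM)–importin beta (0.25 uM) complex; RanGTP-RCC1 trigger; 45 min RT; CFP/YFP FRET read.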
GLA inh pH 4.5 = qHTS Assay for Inhibitors of Human alpha-Galactosidase at pH 4.5; activity change, negative = inhibition, % at 105 µM; 230,000 tested, under 10 active; Alpha-galactosidase A (Homo sapiens), P06280; purified enzyme, 4-MU-alpha-Gal fluorescence, pH 4.5; inconclusive = small, poorly fitted or top-dose-only inhibition, or a rising curve; inactive = flat fitted curve, though single readings scatter; no compound was filed as active;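 note: 0% = full activity with enzyme and -100% = basal without enzyme; dose as in the result columns while the protocol names 77 µM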
* marks the source's active call; other numbers are inactive results; ? = inconclusive; nt = not tested or not shown; & = joins results of further samples; [ ] = dose if it differs, or a comment. These rows are one share of the data. The share of hits here may be higher or lower than overall.

GLA inh pH 4.5 | Rango complex inh | Rango release inh | miR-21 FLuc | SMILES
3 | 0.7% | 4% | -7% | CCOC(=O)N1CCC(NC(=O)C(Cc2ccccc2)NC(=O)c2ccco2)CC1 (centres undefined)
-2 | 1.4% | -8% | 0% | Cc1ccc(N2C(=O)CS/C2=N\C(=S)Nc2ccccc2)cc1
nt | 3.0% | -13% | -2% | COc1ccccc1CNC(=O)[C@H](C)NC(=O)C1CCN(C(=O)[C@@H]2CCCN2C(=O)OC(C)(C)C)CC1
nt | -1.0% | -2% | 7% | Cc1cc(C)c(C#N)c(SCC(=O)Nc2ccc(S(=O)(=O)Nc3ncccn3)cc2)n1
nt | 0.3% | 20% | 5% | O=C1NC(=Nc2ccccc2Cl)S/C1=C\c1cccc([N+](=O)[O-])c1
-3 | 4.7% | -1% | -6% | O=S(=O)(NCC(c1cccnc1)N1CCOCC1)c1cccs1 (centres undefined)
nt | 0.5% | 0% | -3% | O=C(c1cccc(NC2=NC3CS(=O)(=O)CC3S2)c1)N1CCN(c2ccc(F)cc2)CC1 (centres undefined)
-4 | 3.4% | 2% | -4% | CCC(=O)Nc1cc(C(C)(C)C)ccc1C(C)=O
1 | 2.9% | 1% | 21% | O=C(NCc1ccco1)c1cc(-c2cccs2)nc2ccccc12
6 | 0.0% | -11% | 1% | O=C(O)CCn1c(-c2ccccc2)cc2c1CCCC2=O
0 | 4.5% | 25% | 10% | Cc1nc(=S)c2c([nH]1)-c1ccccc1CC21CCCCC1
nt | 0.0% | -1% | -2% | Cc1ccc(-c2nc(CS(=O)CC(=O)NCCN3CCCCC3C)c(C)o2)cc1 (centres undefined)
nt | -4.4% | -2% | nt | CC1Cc2ccccc2N1CC(=O)Nc1ccc2c(c1)OCCCO2 (centres undefined)
-11 | 5.0% | -5% | 15%&18% | CCCCN(CC)C(=O)CSc1nc2n[nH]c(C)c2c(=N)n1-c1cccc(C)c1
1 | -4.2% | 1% | -5% | CCn1c(C)nc2cc(C(=O)N/N=C/c3cccc(O)c3O)ccc21

Entries of single compounds, looked up by structure. Order of screens: GLA inh pH 4.5	Rango complex inh	Rango release inh	miR-21 FLuc
Results for CCn1c(C)nc2cc(C(=O)N/N=C/c3cccc(O)c3O)ccc21 = 1	-4.2%	1%	-5%
Results for O=S(=O)(NCC(c1cccnc1)N1CCOCC1)c1cccs1 (centres undefined) = -3	4.7%	-1%	-6%
Results for Cc1nc(=S)c2c([nH]1)-c1ccccc1CC21CCCCC1 = 0	4.5%	25%	10%
Results for Cc1ccc(N2C(=O)CS/C2=N\C(=S)Nc2ccccc2)cc1 = -2	1.4%	-8%	0%
Results for CCC(=O)Nc1cc(C(C)(C)C)ccc1C(C)=O = -4	3.4%	2%	-4%

Next records follow.
GLA inh pH 4.5 | Rango complex inh | Rango release inh | miR-21 FLuc | SMILES
nt | -1.5% | -2% | -5% | CC(C)COc1cccc(C(=O)NC2(C)CCS(=O)(=O)C2)c1 (centres undefined)
1 | -1.4% | 3% | -6% | CCCNCc1cc(Cl)c(OCC)c(Cl)c1
0 | -4.2% | -17% | -4% | O=C(O)CC(NC(=O)C1c2ccccc2Oc2ccccc21)c1ccc(OC2CCCC2)cc1 (centres undefined)
nt | -0.4% | 1% | -4% | O=C(Nc1cccc(Cl)c1Cl)C1CCCO1 (centres undefined)
-1 | 5.0% | -28% | 4% | CCOC(=O)c1sc(NC(=O)CNCc2cccnc2)c(C(=O)OCC)c1C
4 | -1.5% | -15% | 1% | CN1C(=O)/C(=C\c2ccc(-c3ccccc3)o2)SC1=S
6 | 3.4% | -2% | -3% | Cc1nc2c3ccccc3nc(SCC(=O)c3ccc(Cl)cc3)n2n1
nt | 0.6% | 9% | -1% | O=C(Nc1ccc(C(=O)c2ccc(C(=O)O)c(C(=O)O)c2)cc1)c1ccccc1
2 | -1.6% | -4% | 12% | CCC(=O)c1ccc(OCC(O)Cn2c(C)nc3ccccc32)cc1 (centres undefined)
9 | 0.5% | 25% | -2% | COc1ccc(C2CC(=O)n3nc(C45CC6CC(CC(C6)C4)C5)nc3S2)cc1OC (centres undefined)
-2 | 1.4% | 1% | -3% | O=C(O)/C=C\C(=O)NC1CCCCC1
-10 | 0.7% | 13% | -8% | O=C(Nc1cccc2ccccc12)c1ccc(Cn2cc(Cl)cn2)cc1
-7 | 0.8% | -14% | -6% | Cc1ccc(S(=O)(=O)N2CCCC(C(=O)NCCc3ccc4c(c3)OCO4)C2)cc1 (centres undefined)
nt | 0.4% | 24% | 7% | CCc1cc2cc(C)ccc2nc1SCC(=O)NC1CCCC1
nt | 5.7% | 1% | nt | COc1ccc(Cl)cc1S(=O)(=O)N1CCC(C(=O)NCc2ccccn2)CC1
6 | ? | -17% | -2% | S=c1[nH]nc(-c2cc(-c3ccccn3)nc3ccccc23)o1
nt | 4.2% | 14% | -4% | COc1ccc(C(C(=O)NCCC(C)C)N(CCO)C(=O)c2snc(C(N)=O)c2N)cc1OC (centres undefined)
nt | -1.8% | -2% | nt | COc1ccc(OC)c(NC(=O)CSc2nc3[nH]c(=O)[nH]c(=O)c3s2)c1
-9 | -1.1% | -27% | 0% | C/C=C\C=C/C(=O)Nc1cccc(C2=NOC3(C2)C[C@@H](C(N)=O)N(C(=O)[C@H]2CCC(=O)N2)C3)c1 (some centres undefined)
0 | ? | -15% | -8% | Cc1ccccc1Oc1ncnc2oc(-c3ccccc3)cc12
-18 | -0.2% | 1% | 0% | O=P(Cc1nnco1)(c1ccccc1)c1ccccc1
nt | -3.1% | -20% | nt | C[C@@H]1CN([C@H](C)CO)C(=O)Cc2cc(NS(=O)(=O)c3ccc(Cl)cc3)ccc2O[C@H]1CN(C)Cc1ccc(C(F)(F)F)cc1
3 | -0.3% | 20% | -11% | CCOCCCNC(=O)c1c(C)c(C(=O)OCC)n(C)c1C
0 | -1.1% | 6% | 0% | O=C1/C(=C/c2cccnc2)SC(=S)N1CCc1ccccc1
-3 | 0.1% | 0% | 0% | COCCn1c(N)c(N(Cc2ccccc2)C(=O)c2ccc(C#N)cc2)c(=O)[nH]c1=O
3 | 0.5% | 1% | -2% | Cc1ccc(N2C(=O)CC(Nc3ccc(Cl)c(S(=O)(=O)N(C)C)c3)C2=O)c(C)c1 (centres undefined)
nt | -8.6% | -13% | 6% | CC1CCN(CC2C(=O)O[C@@H]3C[C@@]4(C)CCC[C@H](C)C4=C[C@H]23)CC(C)(C)C1 (some centres undefined)
-14 | ? | ? | 3% | COc1cc(/C=C(/C#N)c2nc3ccccc3[nH]2)ccc1OCC(=O)Nc1ccccc1C(C)C
nt | 0.2% | -1% | -45% | CCc1ccc(NS(=O)(=O)c2ccc3[nH]cc(C(=O)NCC4CCCO4)c(=O)c3c2)cc1 (centres undefined)
-8 | 3.2% | 0% | -6% | COC(=O)C1=C(C)NC(=O)/C1=C\c1cc(C)n(-c2ccccc2)c1C
nt | 3.0% | -4% | 1% | CCC(C)NC(=O)CCc1nnc2ccc(N3CCC(C)CC3)nn12 (centres undefined)
-5 | 6.0% | -9% | -4% | Cc1c(NN=C(C#N)C#N)c(=O)n(-c2ccccc2)n1C
-1 | 1.8% | -5% | 6% | C/C(=N\NC(=O)c1cc([N+](=O)[O-])cc([N+](=O)[O-])c1)c1ccco1
4 | -0.4% | -11% | -23% | CC(=O)C(C)Oc1ncn(-c2ccccc2)n1 (centres undefined)
-28 | 1.4% | -5% | -2% | O=C(c1ccoc1)N1CCC2(CC1)Oc1ccc(Cl)cc1C(=O)C21CC(c2cccnc2)=NO1 (centres undefined)
9[21.1 µM] | ? | -21% | 0% | COc1ccc(C2Nc3ccccc3C(=O)N2NS(=O)(=O)c2ccccc2)cc1 (centres undefined)
5 | 1.0% | 20% | -2% | CCN(CC(=O)NC1CCS(=O)(=O)C1)C(=O)COc1ccccc1-c1ccccc1 (centres undefined)
nt | 0.8% | 1% | 0% | COc1ccc(C2C(C#N)=C(N)N(N(C)C)C3=C2C(=O)CC(C)(C)C3)cc1 (centres undefined)
nt | -1.5% | 12% | nt | Cc1c(C(=O)N2CCN(c3ncccn3)CC2)oc2ccc(F)cc12
-2 | -1.4% | -3% | 1% | Cc1ccc(/C=N/NC(=O)C[n+]2ccccc2)o1
4 | ? | -39% | -33% | c1coc(Cn2c(-c3ccco3)nc3ccccc32)c1
4 | ? | -30% | 0% | C=CCn1c(SCc2ccccc2Cl)nnc1-c1sc2nc(C)cc(C)c2c1N
-16 | -0.7% | -5% | 0% | CN(C)/C=C1/C=C(C=O)OC1=O
7 | 1.1% | 1% | -9% | C=C(C)CNC(=S)N/N=C/c1ccco1
nt | 7.6% | -15% | -2% | C[C@H](NC(=O)C1CCN(S(=O)(=O)c2ccccc2)CC1)C(=O)NCc1ccccn1
10 | 4.6% | -11% | 1% | Cc1c(CNC(=O)C2CC2)c(-n2cccc2)n(Cc2ccccc2)c1C
-11 | -3.2% | -3% | -2% | O=C1CC(N(C(=O)c2ccco2)c2ccc(F)cc2)C(=O)N1c1ccc(F)cc1 (centres undefined)
nt | 0.0% | 0% | -41% | Nc1c(SCCC(=O)O)ccc2c1C(=O)c1ccccc1C2=O
-14 | 0.9% | 4% | -3% | COc1ccc(C(=O)CSc2nnnn2Cc2ccccc2)cc1
nt | ? | -3% | 7% | OCCCNc1cc(-c2ccccc2)nc2cc(-c3ccc(F)cc3)nn12
2 | 5.3% | 14% | -3% | Cc1cc(C)c(S(=O)(=O)n2nc(C)c(Br)c2C)c(C)c1
1 | 0.2% | 11% | -9% | CCOC(=O)Cn1c2c(c(-c3ccccc3OC)cc1=O)CCCC2
3 | 7.5% | 17% | -10% | CCOC(=O)C1CCN(C(=O)CN(c2ccc(OC)cc2)S(=O)(=O)c2c(C)noc2C)CC1
-9 | -2.4% | -1% | 4% | COc1ccc(NCC(=O)n2c(C)c(C)c3ccccc32)cc1OC
nt | 1.1% | -4% | -22% | O=C(COC(=O)c1ccc(O)cc1O)c1ccc2c(c1)OCO2
2 | ? | -4% | -9% | COC(=O)Cn1nc(C)c2ccccc2c1=O
-2 | ? | 15% | 5% | CN1CCN(C(=O)CN(c2cccc(Br)c2)S(=O)(=O)c2ccccc2)CC1
-7 | -2.3% | -5% | -1% | Cc1ccc(S(=O)(=O)N(c2ccc(Br)cc2)C2C=CS(=O)(=O)C2)cc1 (centres undefined)
-2 | -1.2% | 7% | 13% | O=C(Nc1ccc(F)c(Cl)c1)c1ccc2c(=O)n3c(nc2c1)CCCCC3
nt | 3.0% | 0% | 1% | COc1ccc(CNC(=O)C2CCN(S(=O)(=O)N3CCCCC3)CC2)cc1

Remaining list, next part.
GLA inh pH 4.5 | Rango complex inh | Rango release inh | miR-21 FLuc | SMILES
nt | 0.7% | 14% | nt | COc1ccc(C(=O)NNC(=O)c2cccc(S(=O)(=O)N3CCOCC3)c2)cc1
12 | -7.7% | -1% | 21% | N#Cc1c(NCCN)nc(-c2ccco2)c2c1CCCC2
-4 | -0.9% | 12% | -4% | CC1(C)COC(c2cccn2Cc2ccccc2Cl)=N1
-13 | -0.9% | 0% | -30% | Cc1ccc(Cn2nc(C)cc2C(=O)Nc2ccc(Cl)cc2)cc1
0 | 0.7% | -2% | -53% | CCCCCc1nc2c(=O)n(C)c3ccccc3c2o1
nt | 2.0% | 0% | -1% | Cc1ccccc1C(=O)NC1CC2CCCC(C1)N2Cc1ccccc1 (centres undefined)
nt | 0.7% | -1% | nt | CC(=O)N/C(=C\c1ccccc1)C(=O)OCC(=O)N(C)C1CCS(=O)(=O)C1 (centres undefined)
17 | ? | ? | 27% | Cc1nc2ccc(-c3nc4ccc(N)cc4[nH]3)cc2[nH]1
-5 | 5.2% | -11% | -8% | O=c1cc(-c2ccc(O)cc2)oc2c([C@@H]3O[C@H](CO)[C@@H](O)[C@H](O)[C@H]3O)c(O)c([C@@H]3O[C@H](CO)[C@@H](O)[C@H](O)[C@H]3O)c(O)c12
